# GLP-1R inv ag: acts as inverse agonist at human GLP-1 receptor; Potency, µM (titrated, usually from 38.3 µM), for the others: at the highest dose activity change, negative = inhibition, usual class: inhibitors; HEK293 GLP-1R CRE-luciferase, luminescence, 24 h; GLP-1R form is constitutively active; hit rate 1.6% among 410,000; P43220; AID 624417; also: potency is read from the fitted curve at half-maximal effect; % is scaled to controls: 0 for no effect and ±100 for the full control effect; nearly all actives have a fitted effect of over 55% in size
# Target sequence (P43220 whole entry, looked up): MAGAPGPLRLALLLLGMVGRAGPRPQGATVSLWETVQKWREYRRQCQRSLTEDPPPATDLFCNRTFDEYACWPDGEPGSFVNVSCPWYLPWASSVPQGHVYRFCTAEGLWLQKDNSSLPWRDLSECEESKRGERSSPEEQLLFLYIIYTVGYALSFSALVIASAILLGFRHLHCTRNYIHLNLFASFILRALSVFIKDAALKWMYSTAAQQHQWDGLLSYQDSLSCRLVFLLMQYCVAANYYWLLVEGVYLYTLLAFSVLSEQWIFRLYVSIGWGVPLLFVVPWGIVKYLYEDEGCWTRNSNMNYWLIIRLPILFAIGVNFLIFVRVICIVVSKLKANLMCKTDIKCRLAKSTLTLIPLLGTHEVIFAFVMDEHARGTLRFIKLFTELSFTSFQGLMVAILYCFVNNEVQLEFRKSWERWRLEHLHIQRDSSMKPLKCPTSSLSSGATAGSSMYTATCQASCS
#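 Inverse agonists were sought by their lowering of basal cAMP reporter luciferase output in HEK293 cells stably carrying constitutively active human GLP-1R, after 24 h compound treatment.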
# Abeta yeast res: compounds reversing amyloid beta toxicity in yeast | yeast expressing A-beta42, growth rescue, OD600, 48 h; response scale: 0% DMSO, 100% iron-clioquinol control | hit rate 0.063% among 410,000 | Potency, µM (highest dose often 46.1 µM), for inactives: at the top dose growth rescue, usual class: activators; also: potency is read from the fitted curve at half-maximal effect; nearly all actives have a fitted effect of over 55% in size
#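 Yeast A-beta toxicity model in growth medium with pinned compounds, 48 h at 30 C; growth read as absorbance at 600 nm. Normalized to FeCl3/clioquinol equimolar mix (positive) and DMSO (negative).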
# PTHR1 ag: agonists of human PTHR1 parathyroid hormone receptor | Q03431 | HEK293 GP2 PTHR1 cells, GloSensor cAMP luminescence, 1 h | Potency, µM (series often up to 115 µM), for inactives: at the highest dose activation, actives largely listed as activators | hit rate 0.075% among 410,000; also: potency is read from the fitted curve at half-maximal effect; nearly all actives have a fitted effect of over 55% in size; some results filed as inactive show a strong effect at the top dose; inactives centre near -15; many of its hits are not listed in these tables
# Target sequence (Q03431 whole entry, looked up): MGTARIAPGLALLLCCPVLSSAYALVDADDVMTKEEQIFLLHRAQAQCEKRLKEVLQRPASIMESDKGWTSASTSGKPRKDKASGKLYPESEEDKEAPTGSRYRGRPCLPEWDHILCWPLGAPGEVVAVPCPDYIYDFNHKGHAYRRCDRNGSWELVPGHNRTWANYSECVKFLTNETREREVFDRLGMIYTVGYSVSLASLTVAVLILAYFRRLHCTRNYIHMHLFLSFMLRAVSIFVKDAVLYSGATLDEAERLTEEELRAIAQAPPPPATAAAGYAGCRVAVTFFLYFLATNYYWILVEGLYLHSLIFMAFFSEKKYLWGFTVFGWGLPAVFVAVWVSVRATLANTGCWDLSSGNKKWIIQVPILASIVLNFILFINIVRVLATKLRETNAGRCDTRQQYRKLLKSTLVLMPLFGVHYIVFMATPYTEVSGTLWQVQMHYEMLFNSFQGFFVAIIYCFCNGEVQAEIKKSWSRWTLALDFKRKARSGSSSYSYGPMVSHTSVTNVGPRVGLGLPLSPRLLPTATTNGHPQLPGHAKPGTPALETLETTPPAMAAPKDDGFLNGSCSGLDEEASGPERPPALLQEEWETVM
#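 HEK-293-derived GP2 cells expressing PTHR1 and a GloSensor cAMP reporter, 3,000/well, plated overnight, given luciferin plus IBMX (each 0.5 mM as added) for 1 h at 37 °C, then compound for 1 h at 37 °C. Luminescence was read after 15 min at room temperature.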
# aSyn rescue: alpha-synuclein toxicity inhibition in yeast | Yeast expressing alpha-synuclein, growth rescue, BacTiter-Glo, 24 h | Potency, µM (series often up to 46.1 µM), for the others: at the top dose growth rescue (activation), usual class: activators | hit rate 0.14% among 370,000 | AID 652106; also: potency is read from the fitted curve at half-maximal effect; % of control where 0% means no effect; nearly all actives have a fitted effect of over 65% in size
#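 Screening used galactose-induced yeast with toxic alpha-synuclein levels, exposed to compound for 24 hr at 30 deg C. Cell growth, read with BacTiter-Glo luminescence, gave the measured signal.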
# GLP-1R agonist: agonists of human GLP-1 receptor; P43220; Potency, µM (titrated, usually from 45.6 µM), without a hit: at the top dose activation, hits mostly activators; AID 624172; HEK293 GLP-1R CRE-luciferase, luminescence, 4-6 h; cells express a hypersensitive GLP-1R form; hit rate 0.007% among 380,000; also: potency is read from the fitted curve at half-maximal effect; % of control where 0% means no effect
# FUS suppressor: suppressors of FUS proteinopathy in yeast | S. cerevisiae FUS-expressing, growth rescue, OD600, 24 h | Potency, µM (top dose mostly 76.6 µM), for inactives: at the highest dose growth rescue (activation), hits mostly activators | hit rate 0.24% among 390,000 | AID 1347120;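 also: potency is read from the fitted curve at half-maximal effect; plate controls were DMSO vehicle for no effect and reference control for full effect; nearly all actives have a fitted effect of over 55% in size; some results filed as inactive show a strong effect at the top dose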
#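 Compound concentration series was pinned onto galactose-induced FUS-expressing yeast seeded at OD 0.005. Plates sat 24hr at 30C; absorbance at 600 nm gave growth. DMSO served as background control.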
# pAkt inh: blocks phosphorylation of Akt; hit rate 0.32% among 360,000; activity change, % for hits at 50 µM; Neuro2A IGF-stimulated pAkt S473 HTRF, 20 min; stronger effect = lower value; AID 651550; in the data active = activity change below about -80%; inconclusive = mostly about -51% to -80%; also: % is scaled to controls: 0 for no effect and ±100 for the full control effect
#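 Neuro2A cells in DMEM with 0.5% FBS, overnight at 37 deg C, given compound at single 50 µM final, then IGF (6 nM final) for 20 min at 37 deg C. Lysed; phospho-Akt Ser473 by HTRF after 24 h, 665/615 ratio.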
# TDP43 rescue: TDP-43 toxicity inhibition in yeast | hit rate 1.8% among 410,000 | AID 652104 | TDP-43 expressing yeast growth rescue, BacTiter-Glo, 24 h | Potency, µM (titrated, usually from 46.1 µM), without a hit: at the highest dose growth rescue (activation), hits mostly activators; also: potency is read from the fitted curve at half-maximal effect; % of control where 0% means no effect; nearly all actives have a fitted effect of over 50% in size
#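 Yeast cells expressing TDP-43 under galactose induction are exposed to compounds for 24 hr at 30 deg C. BacTiter-Glo luminescence measures growth, so protective compounds score as activators.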
# * marks the source's active call; other numbers are inactive results; i = inactive; ? = inconclusive; nt = not tested or not shown; & = joins results of further samples; [ ] = dose if it differs, or a comment. Unless noted, calls follow the shape of the dose curve; as a rule, active = well fitted curve in the direction sought with a large enough effect; inconclusive = small, poorly fitted or top-dose-only effect, or another doubt; inactive = no such curve, though single readings can be large; an effect the other way counts as inactive or inconclusive. This is a subset, so the mix of outcomes need not match the whole.
cpd | Molecule | GLP-1R inv ag | Abeta yeast res | PTHR1 ag | aSyn rescue
1 | O=c1[nH]cnc2c1ncn2[C@H]1CC[C@@H](CO)O1 | 11.3% | -7.4% | -23.0% | 1.6%&-8.7%
2 | COc1cc(CNC(=O)CCCC/C=C/C(C)C)ccc1O | -16.7% | -26.2% | 1.4% | 4.0%
3 | Cn1c(=O)c2c(ncn2C)n(C)c1=O | -1.3% | -3.9% | -7.9% | -2.2%&3.2%
4 | CCOc1ccc2nc(S(N)(=O)=O)sc2c1 | 4.7% | -18.8% | i | -11.7%
5 | O=C1NCN(c2ccccc2)C12CCN(CCCC(c1ccc(F)cc1)c1ccc(F)cc1)CC2 | ? | -8.7% | 19.6% | -20.4%&-5.8%
6 | CC1(C)O[C@@H]2CC3C4C[C@H](F)C5=CC(=O)C=CC5(C)C4C(O)CC3(C)[C@]2(C(=O)CO)O1 (stereo partly specified) | -27.4% | -22.9% | i | -5.1%
7 | Cc1[nH]c(=O)c(C#N)cc1-c1ccncc1 | 34.3%[activator] | -20.7% | i | 0.0%&-6.6%
8 | COC(=O)[C@@H]1[C@H]2C[C@H]3c4[nH]c5ccccc5c4CCN3C[C@@H]2CC[C@@H]1O | -23.5%&-19.3% | -13.5%&6.0% | -12.9%&-21.8% | 10.7%&0.0%&-2.8%
9 | COC1=CC(=O)C[C@@H](C)[C@]12Oc1c(Cl)c(OC)cc(OC)c1C2=O | -29.7% | -4.2% | i | 0.0%
10 | OCCN1CCN(CC/C=C2/c3ccccc3Sc3ccc(C(F)(F)F)cc32)CC1 | ? | -28.9% | -22.1% | -22.1%&-8.2%
11 | CN/C(=C/[N+](=O)[O-])NCCSCc1ccc(CN(C)C)o1 | 0.4% | -14.1% | -23.9% | -6.0%
12 | CC(C)NCC(O)COc1cccc2ccccc12 (stereo unspecified) | 3.5% | 2.5% | i | 6.0%&1.5%

cpd | GLP-1R agonist | FUS suppressor | pAkt inh | TDP43 rescue
1 | -1.6%&10.1% | -42.6% | i | ?
2 | 8.4%&8.4% | -29.2% | i | 2.0%
3 | 0.4%&-1.1% | -22.5% | i | 8.9%
4 | 3.6%&19.0% | -14.9% | i | ?
5 | -1.1%&-16.0% | -5.5% | i | 0.2%
6 | -0.7% | -18.8% | i | 18.3%
7 | 23.4% | -43.4% | i | -10.9%
8 | -5.7%&3.3% | -21.1%&-9.6% | i | 0.6%&9.6%
9 | 18.1%&6.4% | -24.2% | i | 21.2%
10 | 10.2%&15.3% | -7.1% | i | -6.3%
11 | -3.0% | -33.0% | i | 5.8%
12 | -0.9% | -47.6% | i | 4.9%

# (cont.)
cpd | Molecule | GLP-1R inv ag | Abeta yeast res | PTHR1 ag | aSyn rescue
13 | CCCCC1(COC(=O)CCC(=O)O)C(=O)N(c2ccccc2)N(c2ccccc2)C1=O | -1.0% | -16.3% | 4.7% | 13.7%
14 | O=C(O)C[C@@H](O)C(=O)O | -6.8% | -21.4% | -11.6% | -2.8%
15 | CO[C@@]12[C@H](COC(N)=O)C3=C(C(=O)C(C)=C(N)C3=O)N1C[C@@H]1N[C@@H]12 | -27.1% | -5.3% | -26.0% | 5.9%
16 | O=C(OCc1ccccc1)c1ccccc1 | 5.3% | -17.6% | -41.7%[inhibitor] | -1.7%
17 | COc1ccc([C@@H]2Sc3ccccc3N(CCN(C)C)C(=O)[C@@H]2OC(C)=O)cc1 | -4.0% | -9.6% | -0.7% | 2.0%&-6.5%
18 | Cc1c(N(C)C)c(=O)n(-c2ccccc2)n1C | 2.7% | -20.7% | -23.8% | 3.3%&-1.1%
19 | CCN1CCCC1CNC(=O)c1cc(S(N)(=O)=O)ccc1OC (stereo unspecified) | 3.3% | -10.9% | i | -6.7%&1.7%
20 | CCC(=O)OCC(=O)[C@@]1(OC(=O)CC)[C@@H](C)C[C@H]2[C@@H]3CCC4=CC(=O)C=C[C@]4(C)[C@@]3(Cl)[C@@H](O)C[C@@]21C | ? | -21.9% | -29.4% | 5.7%
21 | CC(=O)O[C@H]1C(=O)[C@@]2(C)[C@H]([C@H](OC(=O)c3ccccc3)[C@]3(O)C[C@H](OC(=O)[C@H](O)C(NC(=O)c4ccccc4)c4ccccc4)C(C)=C1C3(C)C)[C@]1(OC(C)=O)CO[C@@H]1C[C@@H]2O (stereo partly specified) | -56.6% | -15.7% | i | ?
22 | COc1ccc2c3c1O[C@H]1C[C@@H](O)C=C[C@@]31CCN(C)C2 | -19.5% | -15.2% | -3.3% | -5.0%
23 | Cc1ccc(S(=O)(=O)NC(=O)NN2CCCCCC2)cc1 | -4.6% | -4.6% | i | 3.7%&19.8%
24 | CC(CCC(=O)O)C1CCC2C3C(O)CC4CC(O)CCC4(C)C3CC(O)C12C (stereo unspecified) | 7.3% | -8.1% | -19.7% | 12.3%

cpd | GLP-1R agonist | FUS suppressor | pAkt inh | TDP43 rescue
13 | 1.9% | 18.4% | nt | ?
14 | -1.6% | -22.1% | i | ?
15 | 4.6% | -22.1% | i | 0.0%
16 | 9.9%&3.3% | -18.0% | i | 7.9%
17 | 0.2%&25.2% | -15.2% | i | 12.2%
18 | 2.9%&8.1% | -48.7% | i | 0.0%
19 | -0.2% | -11.1% | i | 20.4%
20 | 1.6% | 14.4% | i | 0.0%
21 | 8.2% | -15.7% | i | 0.0%
22 | 2.3%&-6.6% | -11.7% | i | 18.9%
23 | 8.3%&-2.0% | -12.2% | i | 9.1%
24 | -3.4% | 35.3% | i | -3.3%

# Continued; it opens with the 3 that closed the last part.
cpd | Molecule | GLP-1R inv ag | Abeta yeast res | PTHR1 ag | aSyn rescue
22 | COc1ccc2c3c1O[C@H]1C[C@@H](O)C=C[C@@]31CCN(C)C2 | -19.5% | -15.2% | -3.3% | -5.0%
23 | Cc1ccc(S(=O)(=O)NC(=O)NN2CCCCCC2)cc1 | -4.6% | -4.6% | i | 3.7%&19.8%
24 | CC(CCC(=O)O)C1CCC2C3C(O)CC4CC(O)CCC4(C)C3CC(O)C12C (stereo unspecified) | 7.3% | -8.1% | -19.7% | 12.3%
25 | O=C(CCC(=O)c1ccccc1)NCCc1c[nH]c2ccccc12 | ? | 6.4% | i | 12.9%
26 | CCN(CC)CCOc1ccc(/C(=C(/Cl)c2ccccc2)c2ccccc2)cc1 | 11.2µM* | -17.0%&-44.2% | 0.5% | -40.2%&-49.0%[inhibitor]
27 | Oc1cc2c(cc1O)[C@@H](c1ccccc1)CNCC2 | -4.2% | -24.0% | i | -1.0%
28 | O=C(O)COCCN1CCN([C@H](c2ccccc2)c2ccc(Cl)cc2)CC1 | -18.8% | -19.9% | -25.1% | 3.8%
29 | CCCCCC(O)C=CC1C(O)CC(O)C1CC=CCCCC(=O)O (stereo unspecified) | 93.0%[activator] | 5.0% | ? | -0.8%
30 | Cc1ncc([N+](=O)[O-])n1CCO | -0.2% | 21.1% | -22.9% | 5.9%
31 | CN1CCc2cc(Cl)c(O)cc2[C@@H](c2ccccc2)C1 | nt | -1.1% | -21.6% | 1.1%&-2.3%
32 | N[C@H](CC(=O)O)C(=O)O | nt | nt | nt | nt
33 | CN1C(CCl)Nc2cc(Cl)c(S(N)(=O)=O)cc2S1(=O)=O (stereo unspecified) | 28.5% | 2.4% | -11.1% | -3.6%
34 | CC(=O)Nc1ccc(OCC(O)CNC(C)C)cc1 (stereo unspecified) | 5.0% | -14.6% | -14.6% | -5.3%
35 | C[C@H](CCC(=O)O)[C@H]1CC[C@H]2[C@@H]3[C@H](O)C[C@@H]4C[C@H](O)CC[C@]4(C)[C@H]3C[C@H](O)[C@]12C | -24.5%&-7.4%&4.8% | 10.1%&-1.8%&-0.1% | -23.1%&-21.4% | 2.4%&12.3%&0.9%
36 | CN[C@@H](CC(C)C)C(=O)N[C@@H]1C(=O)N[C@H](CC(N)=O)C(=O)N[C@@H]2C(=O)N[C@H]3C(=O)N[C@H](C(=O)N[C@H](C(=O)O)c4cc(O)cc(O)c4-c4cc3ccc4O)[C@H](O)c3ccc(c(Cl)c3)Oc3cc2cc(c3O[C@H]2O[C@@H](CO)[C@@H](O)[C@@H](O)[C@@H]2O[C@@H]2C[C@](C)(N)[C@H](O)[C@H](C)O2)Oc2ccc(cc2Cl)[C@@H]1O | nt | nt | nt | nt

cpd | GLP-1R agonist | FUS suppressor | pAkt inh | TDP43 rescue
22 | 2.3%&-6.6% | -11.7% | i | 18.9%
23 | 8.3%&-2.0% | -12.2% | i | 9.1%
24 | -3.4% | 35.3% | i | -3.3%
25 | 6.4% | 7.5% | i | 11.1%
26 | 10.3%&23.5%&-0.6% | ? | i | 4.2%&3.5%
27 | 7.2% | -3.3% | i | 22.1%
28 | -0.1% | -32.9% | i | -13.0%
29 | -6.5% | 13.3% | i | 25.9%
30 | 16.8%&-3.0% | -36.6% | i | ?
31 | nt | -6.9% | i | 4.4%
32 | 5.6% | nt | nt | nt
33 | 0.8%&8.4% | nt | i | 14.9%
34 | -4.1%&-2.7% | -31.4% | i | 16.5%
35 | 0.0%&1.6%&12.2% | 27.1%&27.7%&24.4% | i | 9.9%&9.7%&24.8%
36 | -1.7% | nt | nt | nt

# Additional results.
cpd | Molecule | GLP-1R inv ag | Abeta yeast res | PTHR1 ag | aSyn rescue
37 | CCCCNc1cc(C(=O)O)cc(S(N)(=O)=O)c1Oc1ccccc1 | -1.2% | -6.7% | -14.9% | 6.9%&10.2%
38 | CCCCNC(=O)NS(=O)(=O)c1ccc(C)cc1 | 8.8% | -1.9% | i | 11.0%&5.6%
39 | CO[C@@]12[C@@H]3N[C@@H]3CN1C1=C(C(=O)C(N)=C(C)C1=O)[C@@H]2COC(N)=O | -63.6% | -18.0% | i | -11.8%
40 | C[C@H](CCC(=O)O)[C@H]1CC[C@H]2[C@@H]3CC[C@@H]4C[C@H](O)CC[C@]4(C)[C@H]3C[C@H](O)[C@]12C | -3.5%&-14.0%&-13.0% | -10.6%&-10.1%&-5.8% | -21.0%&-11.2% | 14.1%&16.4%&13.7%

cpd | GLP-1R agonist | FUS suppressor | pAkt inh | TDP43 rescue
37 | -3.5% | -25.7% | i | 12.9%
38 | -5.9%&3.3% | -12.3% | i | 18.8%
39 | -2.2% | nt | i | -7.7%
40 | 27.1%&-3.5%&-6.4%&-1.6% | ? | i | ?

# Compound activity (PubChem)
